Assay outcomes (PubChem BioAssay)
PINK1 expr mod – PINK1 expression modulation | actives 0.2% (n = 410,000) | Potency, µM (top dose mostly 76.6 µM), for the others: top-dose activation (PINK1 increase), usual class: activators | PINK1 immunofluorescence, high-content cytometry, 24 h; active = well fitted activation curve with a large enough effect; inconclusive = small, poorly fitted or top-dose-only effect; inactive = flat fitted curve, though single readings scatter; cell line not stated here;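 further: potency means the concentration at half of the fitted maximal effect; % of control where 0% means no effect; nearly all actives have a fitted effect of over 65% in size; a mitochondrial uncoupler was the plate control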
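Fluorescence from anti-PINK1 antibody, together with nuclear and cell stains, was scanned on a laser-scanning cytometer. Before staining, stable-line cells were incubated 24 hours with compounds at 5 concentrations; primary antibody 12 h at 10 degrees C.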
TRPML1 agonist – human mucolipin-1 channel agonism. TRPML1-expressing cells, Ca2+ dye fluorescence, FDSS; host cell line not named in the record; reference of the full effect not given here. actives 0.12% (n = 410,000). activation, % (no concentration beside the values); in the data active = activation above about 50%; inconclusive = about 30% to 50%; inactive = below about 30%; further: 0% is about no effect; the text of the record puts the active cut at 80%
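In this qHTS format, compounds were pin-transferred onto Ca8-dye-loaded TRPML1-DL cells induced with Tet overnight, and intracellular Ca2+ fluorescence was recorded kinetically for 110 s after a 10 s baseline. A subsequent 4uM final 54-4 (EC80) addition followed by a second 110 s read served as the antagonist phase.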
TRPML1 blocker – human mucolipin-1 channel inhibition | TRPML1-inducible cells, Ca2+ dye fluorescence, FDSS; active compounds read low; inhibition of EC80 agonist-evoked calcium signal | actives 0.02% (n = 390,000) | AID 624415 | activity change, negative = inhibition, % (test concentration not listed); in the data active means activity change below about -50%; inconclusive means about -30% to -50%; inactive means above about -30%;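 further: stimulus is agonist 54-4 at its EC80 concentration; on the % scale 0 is the no-effect control and ±100 the full control effect; compound concentration not given in the record; the text of the record puts the active cut at -80%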
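TRPML1-DL cells, Tet-induced overnight (~16 h, 37 °C) at 1,500 cells/well, were loaded with Ca8 no-wash dye plus quencher for 45-90 min at room temperature. Compounds were pinned during FDSS kinetic reading; agonist 54-4 at EC80 (4 uM final) then added.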
D2 ag – human D2 receptor agonism in beta-arrestin assay | P14416 | DiscoveRx PathHunter D2 beta-arrestin, luminescence, 90 min; 100% = 57 uM dopamine signal | activation, % (no concentration beside the values) | actives 0.084% (n = 360,000) | AID 624465; in the data active = activation above about 40%; inconclusive = about 15% to 40%; inactive = below about 15%; further: compound concentration not given in the record; the text of the record calls up to 30% inactive
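DiscoveRx PathHunter D2 beta-arrestin cells (2,100/well) attached overnight, then compound-stimulated 90 min at 37 C in HBSS/10 mM HEPES/0.1% Tween-20 buffer; beta-galactosidase complementation read by luminescence after 1 h at ambient temperature. Dopamine 57 uM final (EC100) as control.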
Six1-Eya2 inh – blocks human Six1 binding to Eya2; Q15475+O00167; AlphaScreen GST-Six1/His-Eya2 binding, biochemical; active compounds read low; control for the full effect not named in the record; activity change, % (no concentration beside the values); actives 0.56% (n = 360,000); AID 651725; in the data active = activity change below about -65%; inconclusive = about -30% to -65%; inactive = above about -30%; further: on the % scale 0 is the no-effect control and ±100 the full control effect
Target sequence (O00167 whole entry, looked up): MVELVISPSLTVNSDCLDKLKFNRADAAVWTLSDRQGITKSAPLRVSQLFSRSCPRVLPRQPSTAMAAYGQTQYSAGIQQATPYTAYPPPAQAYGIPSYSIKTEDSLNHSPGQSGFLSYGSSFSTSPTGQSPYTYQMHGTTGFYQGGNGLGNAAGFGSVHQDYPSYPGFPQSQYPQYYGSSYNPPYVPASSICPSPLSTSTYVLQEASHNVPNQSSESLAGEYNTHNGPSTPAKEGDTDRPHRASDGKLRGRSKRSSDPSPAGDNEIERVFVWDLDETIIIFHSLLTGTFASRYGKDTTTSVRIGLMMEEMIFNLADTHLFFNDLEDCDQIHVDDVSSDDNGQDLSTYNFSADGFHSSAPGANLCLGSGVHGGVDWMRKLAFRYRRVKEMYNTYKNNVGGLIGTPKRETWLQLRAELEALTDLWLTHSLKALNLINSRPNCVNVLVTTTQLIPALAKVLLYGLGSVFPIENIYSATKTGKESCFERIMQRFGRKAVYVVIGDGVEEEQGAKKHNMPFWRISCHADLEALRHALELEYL
Target sequence (Q15475 whole entry, looked up): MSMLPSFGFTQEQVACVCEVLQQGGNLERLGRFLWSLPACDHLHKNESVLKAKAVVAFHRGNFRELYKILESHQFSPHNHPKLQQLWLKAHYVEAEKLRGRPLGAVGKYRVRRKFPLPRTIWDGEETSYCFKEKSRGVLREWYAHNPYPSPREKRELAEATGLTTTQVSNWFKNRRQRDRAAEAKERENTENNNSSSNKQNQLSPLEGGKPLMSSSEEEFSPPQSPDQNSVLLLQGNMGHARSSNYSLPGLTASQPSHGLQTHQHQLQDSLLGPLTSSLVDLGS
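Homogeneous AlphaScreen proximity assay pairing GST-Six1 with His-tagged Eya2 (added as 5X mix: 250 nM and 500 nM) in 50 mM Tris pH 8.0, 300 mM NaCl, 1 mM TCEP. Glutathione donor and nickel acceptor beads; 1 h, 37 °C, dark.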
CtBP-E1A inh – CtBP/E1A binding inhibition. AID 651724. AlphaScreen GST-E1A/His-CtBP binding, 1536-well; active compounds read low; control for the full effect not named in the record. activity change, % (test concentration not listed). actives 0.49% (n = 340,000); in the data active means activity change below about -65%; inconclusive means about -30% to -65%; inactive means above about -30%; further: on the % scale 0 is the no-effect control and ±100 the full control effect
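Steps: dispense buffer (Tris pH 8.0, NaCl 300 mM, TCEP 1 mM, BSA, Tween 20); add 5X protein mix (GST-E1A, His-CtBP, 125 nM each); pin 23 nL compound; 2 h at 37 °C, dark; add 5X beads (50 ug/mL); 1 h; read.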
An asterisk follows results filed as active; ? = inconclusive; · = not tested or not shown; [ ] = another dose, or the depositor's remark.

SMILES | PINK1 expr mod | TRPML1 agonist | TRPML1 blocker | D2 ag | Six1-Eya2 inh | CtBP-E1A inh
Cc1nn(C)c(C)c1S(=O)(=O)N1CCC(C(=O)NC2CCCc3ccccc32)CC1 (stereo unspecified) | 0.2% | -0.3 | -21 | -0.3 | 3 | 8
CCOc1ccccc1NC(=O)c1oc2ccccc2c1NC(=O)C1CCCO1 (stereo unspecified) | 5.3% | 1.6 | 35 | -2.4 | 10 | 4
CN(C)c1ccc(CNC(=O)c2cc(S(=O)(=O)N3CCOCC3)cn2C)cc1 | 0.7% | 0.2 | -3 | -5.9 | -2 | 8
Cc1ccccc1C(O)c1ccccn1 (stereo unspecified) | 0.3%[38.3 µM] | 0.0 | -2 | -2.4 | 3 | 1
COc1ccc(C(=O)CSc2nc3cccnc3n2C)cc1 | 0.0% | -1.0 | 3 | -3.1 | -1 | 2
COc1ccccc1N(CC(O)CN1C(=O)NC(C)(C)C1=O)S(=O)(=O)c1ccc(C)cc1 (stereo unspecified) | 1.0% | 0.7 | 55 | -2.3 | 14 | 0
CCOC(=O)C(NC(=O)c1ccc(F)cc1)(Nc1sc2c(c1C(N)=O)CCC2)C(F)(F)F (stereo unspecified) | 3.6% | 0.6 | 5 | 2.0 | -3 | ·
Cc1ccc(S(=O)(=O)c2nc(-c3ccco3)oc2N2CCC(C)CC2)cc1 | 0.9% | 3.2 | 3 | -1.2 | -10 | -10
C(#Cc1ccc2c(c1)COc1c3ccccc3nn1-2)c1ccccc1 | 4.2% | 1.6 | 23 | -0.4 | -1 | -3
COc1ccc2oc(=O)c(C(=O)NCC3CCCO3)cc2c1 (stereo unspecified) | -1.0% | -0.3 | -10 | -0.9 | 5 | 3
Cc1cc(C)c(NC(=O)CSc2nc3ncc(Cl)cc3[nH]2)c(C)c1 | 4.1% | 0.7 | -1 | -2.1 | 2 | -3
CC1=CC(=O)C=C/C1=C(/c1ccc(O)cc1C)c1ccccc1S(=O)(=O)O | 1.4% | 0.2 | 1 | -6.4 | -20 | ·
CCCc1cc(=O)[nH]c2nnc(SC(C)CC)n12 (stereo unspecified) | -9.1% | 2.5 | 14 | · | · | ·
COc1ccc(NC(=S)N(CCc2c(C)[nH]c3ccc(C)cc23)Cc2cccnc2)cc1 | -1.1% | -0.7 | 7 | -2.2 | -15 | -26
CC(=O)C(C(C)=O)C(NC(=O)c1cccnc1)(C(F)(F)F)C(F)(F)F | -0.4% | -0.1 | 9 | -1.2 | 6 | 11
CCOc1ccc(C(O)Cn2c(=N)n(CCN3CCCCC3)c3ccccc32)cc1 (stereo unspecified) | -5.2%[38.3 µM] | 0.1 | 0 | -2.9 | -2 | 4
COc1cccc(OCc2nnc(SCC(=O)OC3CCCCC3)n2C)c1 | 5.4%[38.3 µM] | -0.8 | 3 | -1.4 | -2 | 3
CCOc1ccc(NC(=O)CN2C(=O)C3CC=CCC3C2=O)cc1 (stereo unspecified) | -0.3% | 0.4 | 14 | -1.2 | 3 | 4
CCc1cc(CNC(=O)c2cccc(OC3CCN(S(C)(=O)=O)CC3)c2)on1 | 1.5% | -0.2 | -15 | -1.0 | 3 | 2
COc1ccccc1NC(C)C(=O)Nc1ccc(C(C)=O)cc1 (stereo unspecified) | 0.9% | -0.6 | 8 | -3.7 | -1 | -6
O=C(Cc1ccc(Cl)c(Cl)c1)NC1CCCCCC1 | 0.5% | 0.8 | 2 | -1.0 | -4 | 6
CS(=O)(=O)c1ccccc1C(=O)N1CCN(Cc2ccccc2)CC1 | 0.3% | 0.0 | -17 | 4.2 | -1 | -11
CCOc1ccccc1NC(=O)Cn1c(=O)ccc2cc(S(=O)(=O)N3CCC(C)CC3)ccc21 | 1.0% | 0.3 | -8 | · | · | ·
Cn1c(NC2CCCCC2)c(N=O)c(=O)n(C)c1=O | 0.9% | -0.6 | -11 | -3.3 | 8 | -9
COc1cccc(CN2CCNC(=O)C2CC(=O)N2CCCCO2)c1OC (stereo unspecified) | 2.1% | 0.1 | -7 | -3.1 | 5 | ·
(more compounds)
SMILES | PINK1 expr mod | TRPML1 agonist | TRPML1 blocker | D2 ag | Six1-Eya2 inh | CtBP-E1A inh
Cc1ccc(OCC(=O)Nc2ccc(C(=O)O)cc2NC(=O)COc2ccc(C)c(C)c2)cc1C | 0.4% | 0.1 | -9 | -4.0 | 4 | 3
Nc1ccc(C(=O)N2CCN(S(=O)(=O)c3ccc4c(c3)OCCCO4)CC2)cc1[N+](=O)[O-] | -1.6% | 0.2 | 14 | -0.3 | -3 | -8
N#Cc1c(N2C(=O)c3ccc(C(=O)O)cc3C2=O)sc2c1CCCC2 | -0.2% | -0.2 | 3 | -8.1 | -3 | 7
CCOC(=O)CCNC(=O)Nc1cc2nc(C)n(Cc3cccc(Cl)c3)c2nc1C | 0.0% | -0.6 | -18 | -0.5 | 2 | 4
COc1ccc(C)cc1-n1c(=O)c2ccccc2c2ccccc2c1=O | 1.9% | 2.2 | -20 | -2.1 | -20 | -5
CC(C)N(C(=O)[C@H]1C[C@H](CC(=O)NCCc2ccccn2)C(=O)N2CCc3c([nH]c4cc(CCC(=O)N(C)C)ccc34)[C@]12C)C(C)C | -0.4% | -0.9 | -7 | 1.5 | -3 | 2
COc1nc(NC(C)(C)C)nc(Oc2ccc(=O)n(-c3ccccc3)n2)n1 | 3.3%[38.3 µM] | 0.0 | 3 | -0.2 | 3 | 0
O=C(Cc1csc(NC(=O)Nc2ccc(Cl)cc2)n1)NCc1ccccn1 | 1.5% | -0.2 | -10 | -1.3 | -8 | -1
CCCN=C1N(C)C[C@@H]2[C@@H]3C(=O)N(C)C(=O)[C@@H]3[C@](C)(C(=O)OC)N12 | -1.6% | 0.1 | 26 | -0.4 | 8 | 10
COc1cc2c(cc1OC)-c1cc(NC3CCCCCCC3)nc(=O)n1CC2 | 0.3% | 0.4 | -7 | -0.7 | -80* | -85*
COc1ccccc1C(=O)N1CC(=O)Nc2ccc(C)cc2C1c1ccc(F)cc1 (stereo unspecified) | 0.6% | 0.6 | -19 | -2.0 | 4 | 3
CCC(C(=O)Nc1cc(Cl)c(OC)cc1OC)c1ccccc1 (stereo unspecified) | 1.8% | 1.0 | 15 | -3.9 | 0 | -4
CSCCC(NC(=O)c1ccco1)C(=O)OCC(=O)N1c2ccccc2NC(=O)C1(C)C (stereo unspecified) | 1.5% | -0.1 | -8 | -1.4 | -2 | 6
Cc1cc(Cl)ccc1OCC(=O)N1CC(C)CC(C)C1 (stereo unspecified) | -0.3% | 0.5 | 2 | -3.7 | 7 | 6
CC(=O)NC1=C(Nc2ccc(N(C)C)cc2)C(=O)c2ccccc2C1=O | -1.0% | 1.3 | -11 | -6.5 | -23 | -17
O=C(NCc1cccnc1)Nc1ccc(Cl)c(Cl)c1 | 0.1% | · | · | 1.1 | 1 | ·
COc1ccc(C2c3cccn3CCN2S(=O)(=O)c2ccc([N+](=O)[O-])cc2)cc1 (stereo unspecified) | 0.8% | 3.5 | 15 | · | · | ·
COc1ccc(OC)c(-n2cnc3cc(C(=O)NCCCN4CCOCC4)ccc32)c1 | 3.3% | 0.0 | -10 | 0.5 | 1 | 5
CCOc1ccc(NC(=O)CN(C)C(=O)c2cc(C)on2)cc1OCC | 1.3% | -0.6 | 13 | -1.8 | 0 | 8
Cc1nn(C)c(Cl)c1NC(=O)OCc1ccc(Cl)cc1Cl | 6.8% | 0.2 | -5 | -3.2 | -3 | 1
NC(=O)N1CCN(CCCN2c3ccccc3Sc3cc(Cl)ccc32)CC1 | 0.5% | -0.3 | 13 | -0.7 | 11 | -11
CNC(=S)N(CCc1ccc(OC)c(OC)c1)Cc1cc2c(C)cc(C)cc2[nH]c1=O | -1.9% | -0.1 | -15 | 0.3 | -5 | -4
CSc1ncc(C(=O)Nc2ccccc2Cl)c(C)n1 | -0.2% | -0.4 | -2 | 0.3 | 1 | 3
COc1cccc(NCc2cc(=O)oc3cc(C)c(O)cc23)c1 | 11% | -0.3 | 10 | -5.3 | -14 | -9
c1ccc(-c2ncnc3nc4n(c23)CCC4)cc1 | 7.9µM* | -0.1 | -5 | -0.4 | -2 | -7
The results go on:
SMILES | PINK1 expr mod | TRPML1 agonist | TRPML1 blocker | D2 ag | Six1-Eya2 inh | CtBP-E1A inh
NNc1nnc2c3cc(F)ccc3n(CCc3ccccc3)c2n1 | ? | 2.2 | -11 | -2.5 | -7 | -11
COc1cccc(NC(=O)NCCCN2CCN(c3ccc(F)cc3)CC2)c1 | 3.1% | 0.3 | -9 | 0.2 | 2 | -13
CCCn1c(N2CCN(C)CC2)nc2c1c(=O)[nH]c(=O)n2C | 2.9% | -0.5 | 15 | -1.4 | 8 | -1
COc1ccc(/C=N/NC(=O)/C(=C/c2ccccc2)CCO)cc1 | 0.3% | -0.1 | 3 | -4.8 | -12 | -9
CCc1ccc(-n2c(C)nnc2SCc2nc(-c3ccc(OC)cc3)no2)cc1 | -0.4% | -0.7 | -10 | · | · | ·
N/C(=N\OC(=O)CCCOc1ccccc1)c1cccc(Br)c1 | 1.9% | 2.0 | -10 | -0.9 | 67 | 26
CCc1ccc(-c2csc3ncn(Cc4ccc(C(=O)O)cc4)c(=O)c23)cc1 | 0.7% | 0.4 | 7 | -3.0 | -8 | -5
CSc1ccccc1NC(=O)CSc1nnc(COc2ccccc2)o1 | 1.8% | -0.2 | 5 | 0.0 | -3 | 4
CC(C)(C)c1csc(NC(=O)Cn2cnc3ccccc3c2=O)n1 | 3.7% | -0.6 | -16 | 1.2 | -3 | 0
O=C(COC(=O)Cc1ccsc1)NC1CCCCCC1 | -1.6% | -0.6 | -2 | -2.3 | 4 | 7
COC(=O)/C=C/C(=O)NCc1ccco1 | 1.4% | 0.0 | 32 | 1.1 | 8 | -2
Cn1c(SCC(=O)c2ccc(O)cc2O)nnc1-c1ccccc1 | 3.9% | 0.4 | 15 | -6.2 | -3 | -18
CCNC(=O)CN1c2cccc3cccc(c23)S1(=O)=O | -1.0% | -0.4 | 6 | 0.4 | -1 | 2
O=C(N/N=C/c1ccc(Cl)c([N+](=O)[O-])c1)c1ccc2c(c1)OCCO2 | 3.2% | · | · | -4.3 | 4 | 2
Cc1cccc(NC(=O)c2ccc(Cn3cc(C(F)(F)F)ccc3=O)cc2)c1 | 2.2% | 0.1 | -1 | -1.8 | 3 | 5

Whole records, looked up by structure.
N/C(=N\OC(=O)CCCOc1ccccc1)c1cccc(Br)c1 as listed: PINK1 expr mod = 1.9%; TRPML1 agonist = 2.0; TRPML1 blocker = -10; D2 ag = -0.9; Six1-Eya2 inh = 67; CtBP-E1A inh = 26
CCc1ccc(-n2c(C)nnc2SCc2nc(-c3ccc(OC)cc3)no2)cc1 as listed: PINK1 expr mod = -0.4%; TRPML1 agonist = -0.7; TRPML1 blocker = -10; D2 ag = ·; Six1-Eya2 inh = ·; CtBP-E1A inh = ·
